Screening data: PubChem BioAssay, Southern Research Institute
Mtb growth – Mycobacterium tuberculosis H37Rv growth inhibition, putative kinase inhibitor library, confirmatory dose response (AID 2842) | actives 5.2% (n = 24,000) | M. tuberculosis H37Rv growth inhibition; higher % means a stronger effect; some inactives read as strong as hits | one-dose inhibition, % at 10 µg/mL; IC90 in µg/mL for titrated hits;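 active means confirmed in a dose series; about a fifth of its hits are not listed in these tables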;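 further: bacteria incubated one week before Alamar blue readout; 0% = bacteria only wells and 100% = bacteria with high antibiotic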
Active calls of the source: *.

SMILES	Mtb growth
CCCCCCCOc1ccc(C(NC(C)=O)NC(C)=O)cc1OC	2.7%
COc1ccc(CCNC(=O)Cn2cnc3c(nnn3-c3ccc(OC)c(OC)c3)c2=O)cc1OC	-6.3%
CCOc1ccc(-n2c(=O)[nH]cc(C(=O)Nc3cc(C)ccc3OC)c2=O)cc1	-8.1%
Cc1ccc(OCC(O)Cn2c(NC3CCCCC3)nc3c2c(=O)[nH]c(=O)n3C)cc1C (stereo not given)	-2.5%
Nc1ncnc(Nc2ccc(Cl)cc2Cl)c1[N+](=O)[O-]	-1.7%
COc1ccc(C2C=C(c3ccccc3)Nc3ncnn32)cc1OC (stereo not given)	3.3%
O=C1CCc2cc(S(=O)(=O)NC3CC3)cc3c2N1CC3	-3.2%
COc1ccc(N2CCN(c3nc4c(c(=O)[nH]c(=O)n4C)n3CCSc3ncccn3)CC2)cc1	6.3%
CC(=O)N1CCc2c(sc(NC(=O)C(C)C)c2-c2nc3ccccc3s2)C1	13.5µg/mL*
Cn1c(=O)c2c(SCC(=O)Nc3cccc(C(F)(F)F)c3)nc(-c3ccc([N+](=O)[O-])cc3)nc2n(C)c1=O	1.6%
CCOc1ccc(-c2ccc3nnc(SCc4cccnc4)n3n2)cc1	7.6%
CCC(C)Nc1ncnc(N)c1[N+](=O)[O-] (stereo not given)	5.3%
CCOC(=O)c1nn(-c2ccccc2)c(=O)c2c(NC(=O)c3cc(Br)ccc3Cl)scc12	-9.9%
CCCn1c2c(c(=O)[nH]c1=O)C(c1cccs1)C1=C(COC1=O)N2 (stereo not given)	-6.0%
Nc1nc(SCC(=O)Nc2ccc([N+](=O)[O-])cc2)[nH]c(=O)c1NC(=O)c1ccco1	-7.8%
Cc1cccc(Cc2cnc(NC(=O)c3oc4ccccc4c3C)s2)c1	4.6%
C=CCOC(=O)COc1ccc2c(C)c(-c3ccccc3)c(=O)oc2c1	0.85µg/mL*
COc1ccc(C(=O)Nc2nc3c(cc4c5c(cccc53)CC4)s2)cc1OC	0.6%
COc1ccc(-c2nc(SCC(=O)Nc3ccc(Cl)c(Cl)c3)c3c(=O)n(C)c(=O)n(C)c3n2)cc1	11.1%
O=C(NCc1ccccn1)NC1CC(=O)N(c2cccc(F)c2)C1 (stereo not given)	11.2%
Cn1c(=O)c2c(nc(SCC(N)=O)n2Cc2ccc(Cl)cc2)n(C)c1=O	-3.8%
CCCNc1nc2c(c(=O)[nH]c(=O)n2C)n1CC(O)COc1ccccc1 (stereo not given)	-6.6%
C=CCSc1nc(N)c(C#N)c(-c2ccc(OCc3ccccc3)cc2)c1C#N	-3.9%
Cc1ccc(-c2c3c(nc4sc(C(=O)Nc5ccc(F)cc5)c(N)c24)CCCC3)o1	23.8%
COc1cc(OC)cc(C(=O)Nc2cc3c4c(c2)CCC(=O)N4CCC3)c1	6.0%
Cc1ccc(NC(=O)c2cc3c(CO)cnc(C)c3oc2=Nc2ccc(F)cc2)cc1C	-3.5%
NC(=O)c1c(NC(=O)C2=COCCO2)sc2c1CCCCC2	-0.7%
C#CCn1c(=NC(=O)c2ccc(Cl)s2)sc2cc(NC(C)=O)ccc21	13.4%
COc1ccc(Cl)cc1C(=O)Nc1cccc(-c2ccc3nncn3n2)c1	-9.4%
CCc1nnc(NC(=O)CSc2nc(N)c(NC(=O)c3ccco3)c(=O)[nH]2)s1	-7.8%
CC(C)CSc1nc2c(c(=O)[nH]c(=O)n2C)n1CC(O)COc1ccccc1 (stereo not given)	-4.8%
N#Cc1c(NC(=O)c2ccc(Br)cc2F)sc2c1CCC2	9.0%
COc1cc(OC)cc(C(=O)Nc2c(C(=O)Nc3ccc(C)cc3)oc3ccccc23)c1	-1.2%
O=C1C2ON(c3ccc(Cl)cc3)C(c3ccc(F)cc3)C2C(=O)N1c1ccc([N+](=O)[O-])cc1 (stereo not given)	-7.4%
Cc1ccc2sc(NC(=O)CN3C(=O)CCC3=O)nc2c1C	1.3%
C=C(C)Cn1c(N2CCN(Cc3ccc(Cl)cc3Cl)CC2)nc2c1c(=O)[nH]c(=O)n2C	2.0%
COc1ccccc1NC(=O)CSc1nnc2cc(C)c3ccccc3n12	-3.7%
c1ccc(COc2ccc(Nc3ncnc4nc[nH]c34)cc2)cc1	43.9%
COc1cccc2cc(C(N)=O)c(=Nc3ccc(O)cc3)oc12	1.8%
CCOC(=O)c1sc(NC(=O)C2CC2)nc1C	52.9%
N#C/C(=C\c1ccco1)C(=O)Nc1cccc2ncccc12	2.7%
CCC(Sc1ccc(Cl)cc1)C(=O)Nc1nnc(C)s1 (stereo not given)	16.9%
COc1ccc(NC(=S)NCCc2cc3ccc(C)cc3[nH]c2=O)c(OC)c1	15.6%
CCOC(=O)c1nn(-c2ccc(OC)cc2)c(=O)c2c(NC(=O)c3ccccc3OC)scc12	-4.0%
O=C(Nc1nc(-c2ccc(Cl)s2)cs1)c1ccc(S(=O)(=O)N2CCCCC2)cc1	12.9%

By substructure, the entries above containing fluorine
SMILES	Mtb growth
Cn1c(=O)c2c(SCC(=O)Nc3cccc(C(F)(F)F)c3)nc(-c3ccc([N+](=O)[O-])cc3)nc2n(C)c1=O	1.6%
O=C(NCc1ccccn1)NC1CC(=O)N(c2cccc(F)c2)C1 (stereo not given)	11.2%
Cc1ccc(-c2c3c(nc4sc(C(=O)Nc5ccc(F)cc5)c(N)c24)CCCC3)o1	23.8%
Cc1ccc(NC(=O)c2cc3c(CO)cnc(C)c3oc2=Nc2ccc(F)cc2)cc1C	-3.5%
N#Cc1c(NC(=O)c2ccc(Br)cc2F)sc2c1CCC2	9.0%
O=C1C2ON(c3ccc(Cl)cc3)C(c3ccc(F)cc3)C2C(=O)N1c1ccc([N+](=O)[O-])cc1 (stereo not given)	-7.4%

(continued)
SMILES	Mtb growth
CCS(=O)(=O)c1cccc(C(=O)Nc2ccc(OC)c3ccccc23)c1	1.2%
CCc1ccc(NC(=O)CSC2=C(C#N)C(c3ccco3)C3=C(CCCC3=O)N2)cc1 (stereo not given)	78.1%
COC(=O)c1ccc(NC(=O)c2cnc3sccn3c2=O)cc1	-3.3%
Cc1nc2sc(C(c3cccc(Br)c3)N3CCC(C(N)=O)CC3)c(O)n2n1 (stereo not given)	0.6%
COc1ccc(Cl)cc1Nc1ncnc(N)c1[N+](=O)[O-]	13.4%
Cc1cc(SCc2ccccc2)nc(=O)[nH]1	-6.5%
CC1CCc2c(sc3ncn(CCCOc4ccccc4)c(=O)c23)C1 (stereo not given)	10.6%
COCCCn1c(C)c(C)n2c3c(=O)n(CC(=O)c4ccc(F)cc4)c(=O)n(C)c3nc12	-20.7%
Cc1cccc(Cn2c(N(C)Cc3ccccc3)nc3c2c(=O)[nH]c(=O)n3C)c1	1.4%
O=C(CSc1ccc(-c2ccc(-n3cccn3)cc2)nn1)NCc1ccccc1Cl	-4.8%
COc1ccc(NC(=O)c2oc3ccccc3c2NC(=O)CC(C)C)cc1OC	7.2%
CC(C)(C)n1nc2c(c1NC(=O)c1ccccc1F)CS(=O)C2 (stereo not given)	-8.2%
O=C(Nc1c(C(=O)Nc2ccc3c(c2)OCCO3)oc2ccccc12)c1ccc(F)cc1	14.3%
CCC(C)NC(=O)c1c(N)n(/N=C/c2ccc(O)c(O)c2)c2nc3ccccc3nc12 (stereo not given)	25.2%
CSc1ccc2nc(Nc3nc4c(Cl)cccc4s3)sc2c1	58.6%
COC(CNc1ncnc2c1cnn2-c1ccc(C)c(C)c1)OC	16.1%
CCc1ccccc1NC(=O)CSc1nnc(-c2cccnc2)n1-n1cccc1	-0.5%
COC(=O)c1[nH]c(C)c(/C(O)=C2\C(=O)C(=O)N(CCN(C)C)C2c2cccnc2)c1C (stereo not given)	-14.5%
O=C(CSc1ncnc2c1oc1ccccc12)NCc1ccc(F)cc1	98.3%
O=C(CC1CCS(=O)(=O)C1)Nc1cccc(C(=O)O)c1 (stereo not given)	2.8%
Cc1ccc(N2C(=O)C(Cc3ccc(Br)cc3)S/C2=C(/C#N)C(=O)NCCc2ccccc2)cc1 (stereo not given)	-9.9%
COc1ccc(CC(=O)NCc2nnc(SCC(=O)Nc3nnc(C)s3)n2-c2ccccc2)cc1	-3.1%
Cc1ccnc(SCc2cc(=O)c(OC(=O)c3ccc([N+](=O)[O-])cc3)co2)n1	-15.7%
CCCCC(=O)NCCc1cc2ccc(C)c(C)c2[nH]c1=O	-2.9%
O=C(Nc1nc(-c2cccs2)cs1)c1ccc(S(=O)(=O)N2CCc3ccccc3C2)cc1	-5.8%
CCOc1ccc(-c2[nH]ncc2-c2ccc(Cl)cc2)c(O)c1	7.06µg/mL*
COc1ccccc1C(=O)Nc1c(C(=O)Nc2ccc(Cl)cc2)oc2ccccc12	4.2%
Cc1ccc(-c2nnc(NC(=O)c3ccco3)o2)c(C)c1	4.51µg/mL*
CCCCOc1cccc(C(=O)Nc2nnc(-c3ccc(S(C)(=O)=O)cc3)o2)c1	83.0%
COc1cccc(Nc2ncnc3sc(C)c(-c4ccccc4)c23)c1	31.4%
O=C(Nc1nnc(-c2ccccc2Cl)o1)c1cccc(N2C(=O)CCC2=O)c1	49.9%
Cc1ccc(-n2ncc3c(NNC(=O)c4ccc(Cl)c(Cl)c4)ncnc32)cc1	55.9%
COc1ccc2cc(CCNC(=O)C(C)C)c(=O)[nH]c2c1	-4.0%
CCOc1ccc2c(c1)c(=O)c(S(=O)(=O)c1ccc(F)cc1)cn2Cc1ccc(OC)cc1	5.8%
CCCc1cc(=O)[nH]c2nnc(SCc3cccc4ccccc34)n12	-12.6%
CCOC(=O)CCC(=O)Nc1c(C(=O)Nc2ccccc2OC)oc2ccccc12	-7.2%
COc1ccc(OC)c2[nH]c(=O)c(CCNC(=O)C(C)Oc3ccccc3)cc12 (stereo not given)	11.8%
CCOC(=O)c1ccsc1NC(=O)CN1C(=O)c2ccccc2C1=O	-8.1%
O=C(O)c1ccc(N2C(=O)CC(N3C(=O)/C(=C/C=C/c4ccccc4)SC3=S)C2=O)cc1 (stereo not given)	-13.2%
O=C(Cc1ccc(F)cc1)Nc1c(C(=O)Nc2ccccc2)oc2ccccc12	-5.0%
CCCCC(CC)CNc1nc2c(c(=O)[nH]c(=O)n2C)n1CC(O)COc1cccc(CC)c1 (stereo not given)	1.6%
COc1ccc(C(=O)NCCc2cc3c(OC)ccc(OC)c3[nH]c2=O)c(OC)c1	8.4%
O=C(CSc1ccc2nnc(-c3ccccn3)n2n1)Nc1nc2ccccc2s1	-1.9%
COC(=O)c1c(NC(=O)CCc2ccc(C)o2)sc2c1CCCC2	12.0%
CC1CC(C)CN(S(=O)(=O)c2ccc(C(=O)Nc3nc(-c4ccc(Cl)s4)cs3)cc2)C1 (stereo not given)	7.2%
CCOC(=O)c1oc2ccccc2c1NC(=O)c1ccc(S(=O)(=O)N(CC)CC)cc1	2.8%
Cc1ccccc1C1C2=C(COC2=O)Nc2c1c(=O)[nH]c(=O)n2CC(C)C (stereo not given)	9.6%
COc1ccc(OC)c2[nH]c(=O)c(CCNC(=O)c3cccc(F)c3)cc12	7.4%
O=C(NCc1ccc(F)cc1)c1ccc(=O)[nH]n1	-0.1%
Nc1nc(SCC(=O)NCc2ccccc2Cl)[nH]c(=O)c1NC(=O)c1ccccc1F	-6.8%
Cc1cccn2c(=O)c(C=O)c(N3CCCC3)nc12	5.7%
O=C(O)CSc1nc2ccccc2s1	11.1%
O=C(CSc1nc2c(c(=O)n1-c1ccccc1)SCC2)Nc1cccc(F)c1	-2.7%
O=C(CSC1=Nc2cccnc2Nc2ccccc21)Nc1ccc(OC(F)(F)F)cc1	6.8%
Cn1c(=O)[nH]c(=O)c2c1nc(N1CCCC1)n2CCCOc1ccccc1	-2.8%
Cc1csc2ncc(C(=O)Nc3ccc(Br)cc3)c(=O)n12	-8.4%
O=C(CSc1ccc2nnc(-c3ccncc3)n2n1)OCc1ccccc1	75.5%
Cc1n[nH]c(C)c1CCC(=O)N/N=C/c1ccccc1F	-11.1%
O=c1nc2s/c(=C/c3ccccn3)c(=O)n2nc1-c1ccccc1	-5.3%
CC(C)c1cc(N2CCN(C(=O)c3ccco3)CC2)n2c(nc3ccccc32)c1C#N	2.4%

Molecules above that contain bromine:
SMILES	Mtb growth
CCOC(=O)c1nn(-c2ccccc2)c(=O)c2c(NC(=O)c3cc(Br)ccc3Cl)scc12	-9.9%
N#Cc1c(NC(=O)c2ccc(Br)cc2F)sc2c1CCC2	9.0%
Cc1nc2sc(C(c3cccc(Br)c3)N3CCC(C(N)=O)CC3)c(O)n2n1 (stereo not given)	0.6%
Cc1ccc(N2C(=O)C(Cc3ccc(Br)cc3)S/C2=C(/C#N)C(=O)NCCc2ccccc2)cc1 (stereo not given)	-9.9%
Cc1csc2ncc(C(=O)Nc3ccc(Br)cc3)c(=O)n12	-8.4%

More records.
SMILES	Mtb growth
N#C/C(=C\c1ccc(-c2ccccc2[N+](=O)[O-])o1)c1nc(-c2cccs2)cs1	8.0%
COc1ccc(-c2nnc3c4cc(F)ccc4n(Cc4ccccc4F)cc2-3)cc1	8.7%
O=C(Nc1nnc(-c2cccc([N+](=O)[O-])c2)s1)c1c(F)cccc1Cl	1.3%
Cc1ccc(CNC(=O)CN2N=NC3C(=O)N(c4ccc(F)c(Cl)c4)C(=O)C32)cc1 (stereo not given)	-4.2%
Cc1nnc(NC(=O)C(C)Cl)s1 (stereo not given)	5.5%
COc1ccc(-c2nnc3c4cc5c(cc4n(Cc4cccc(OC)c4)cc2-3)OCO5)cc1	16.8%
O=C(NCc1nnc(SCc2ccccn2)o1)c1c(F)cccc1F	5.3%
Cc1cccc(NC(=O)CSc2nc3c(c(=O)n2-c2ccccc2)SCC3)c1	5.9%
CCC(=O)NNc1nc2c(C)c(C)ccc2s1	56.2%

Three entries from above, with each value named.
> CCC(=O)NNc1nc2c(C)c(C)ccc2s1
  Mtb growth: 56.2%

> COc1ccc(-c2nnc3c4cc5c(cc4n(Cc4cccc(OC)c4)cc2-3)OCO5)cc1
  Mtb growth: 16.8%

> COc1ccc(-c2nnc3c4cc(F)ccc4n(Cc4ccccc4F)cc2-3)cc1
  Mtb growth: 8.7%

Not all compounds are listed (hit frequency here may not be typical).
